GALR2 ag = GALR2 (human) receptor agonism; O43603; GALR2-expressing cells, agonist activation read-out; activation, %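 (tested at 5 µM)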; hit rate 0.48% among 140,000; AID 803;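 active means above mean plus 3 SD of all compounds, about 5% in these data, not always enough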;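 further: 0% = vehicle buffer wells and 100% = reference agonist at full effect; tested in CHO reporter cells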
Target sequence (O43603 whole entry, looked up): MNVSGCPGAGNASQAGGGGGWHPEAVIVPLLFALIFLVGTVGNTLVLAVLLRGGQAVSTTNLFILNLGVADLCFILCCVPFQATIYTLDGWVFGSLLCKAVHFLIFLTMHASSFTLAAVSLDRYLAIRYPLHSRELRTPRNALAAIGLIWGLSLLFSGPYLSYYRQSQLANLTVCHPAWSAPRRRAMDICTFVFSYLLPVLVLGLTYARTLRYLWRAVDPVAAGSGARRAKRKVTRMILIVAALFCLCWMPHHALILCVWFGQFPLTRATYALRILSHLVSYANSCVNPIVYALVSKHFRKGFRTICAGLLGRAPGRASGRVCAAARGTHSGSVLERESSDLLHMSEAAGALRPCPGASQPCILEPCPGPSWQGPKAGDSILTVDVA
RGS16-Gao HTS = regulators of human RGS16-Galphao interaction; hit rate 0.38% among 220,000; bead-based flow cytometry RGS16-Galphao binding, fluorescence; actives lie on both sides; O15492+P09471; binding response (% of control), % at 10 µM;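 active means below 25% or above 175%, edge rows of some plates excepted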;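 further: Galphao activated by GDP with aluminum fluoride before binding; 100% = wells without compound and 0% = beads without RGS; some results beyond the cut were filed as inactive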
Target sequence (O15492 whole entry, looked up): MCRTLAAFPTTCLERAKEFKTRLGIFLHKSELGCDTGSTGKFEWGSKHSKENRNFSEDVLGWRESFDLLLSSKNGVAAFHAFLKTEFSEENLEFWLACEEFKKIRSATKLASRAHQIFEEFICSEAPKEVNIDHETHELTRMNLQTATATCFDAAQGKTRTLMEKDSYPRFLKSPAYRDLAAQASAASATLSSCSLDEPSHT
Target sequence (P09471 whole entry, looked up): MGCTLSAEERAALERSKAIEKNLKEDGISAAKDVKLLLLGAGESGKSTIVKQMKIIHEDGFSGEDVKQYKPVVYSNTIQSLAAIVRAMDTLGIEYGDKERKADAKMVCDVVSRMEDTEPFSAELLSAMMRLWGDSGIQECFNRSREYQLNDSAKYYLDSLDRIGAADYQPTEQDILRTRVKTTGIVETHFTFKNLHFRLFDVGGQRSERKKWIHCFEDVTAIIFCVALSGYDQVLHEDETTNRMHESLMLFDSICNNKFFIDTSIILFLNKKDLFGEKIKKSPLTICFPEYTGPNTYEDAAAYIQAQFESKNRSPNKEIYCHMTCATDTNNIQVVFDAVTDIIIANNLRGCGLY
PKD1 inh = blocks activity of human protein kinase D1 | Q15139 | PKD1 kinase fluorescence polarization assay | inhibition, %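 (about 10 µM by stock and volumes)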 | hit rate 0.056% among 200,000 | AID 797;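 active means inhibition of 50% or more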;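 further: controls were vehicle for no effect and a reference inhibitor for full effect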
Insulin prom inh = TRM-6 insulin promoter activity inhibition. TRM-6 cells (human fetal islet line), insulin promoter-eGFP reporter, imaging; reporter expression induced with tamoxifen. inhibition, % at 2 µM. hit rate 0.9% among 130,000;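 active means inhibition above the mean plus 3 SD, with well images judged a real hit on visual review, cut at about 60% in these data, passing the limit was not always enough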
HSV augment = HSV replication enhancement; HSV replication augmentation in cells, fold increase; maximum fold increase; hit rate 0.005% among 220,000; AID 1956;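 active means peak rise of 1.5-fold or more in the series; tested in PC3 cells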;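 further: first round at 10 µM; read as green reporter fluorescence; hits show the peak of a series up to 25 µM; 1 = signal of infected wells without compound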
Insulin prom inh cell count = further read-out of Insulin prom inh, marked with its call; normalized cell count, %; measured here: cell count, toxicity; reference of the scale not given here;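 cells exposed to compound for 48 h; stained nuclei by imaging scaled within each plate; lower means fewer cells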
HSV augment primary fold = second read-out of HSV augment, no call of its own (marks repeat the call); fold increase; compound at 10 µM; measured here: primary screen fold increase 10 uM; tested in PC3 cells;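 GFP signal in the first replicate; 1 = infected wells without compound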
Active calls of the source: *; i = inactive; · = no result given.

Value order – GALR2 ag, RGS16-Gao HTS, PKD1 inh, Insulin prom inh, Insulin prom inh cell count, HSV augment, HSV augment primary fold
CCOC(=O)c1cc2c(=O)n3ccccc3nc2n(Cc2ccccc2)c1=N
  -1.2, 97.7, 0.3, 28.9, 100.8, i, 0.977
CN(Cc1ccon1)Cc1cn[nH]c1-c1ccc(-c2ccccc2)cc1
  ·, 60.4, -3.8, ·, ·, i, 0.91
CCOC(=O)C1CCN(c2c(NCCC(C)C)c(=O)c2=O)CC1
  ·, 95.4, ·, ·, ·, i, 1
Cc1csc2ncc(C(=O)N3CCc4ccccc43)c(=O)n12
  -1.7, ·, -4.2, ·, ·, i, 0.9
O=C(CSc1nnc(-c2csc3c2CCCC3)o1)Nc1ccccc1
  -1.9, 100.1, -1.1, ·, ·, i, 0.97
CC1CCCCC1NC(=O)c1nnc(Cc2ccc(Cl)cc2)o1 (centres undefined)
  -0.2, 112.3, -15.0, -10.0, 105.9, ·, ·
CCn1c2ccccc2c2cc(NC(=O)Cc3ccc(S(=O)(=O)N4CCOCC4)s3)ccc21
  1.0, 102.8, -1.9, -2.6, 52.4, i, 0.42
CCOC(=O)CSc1ccc(S(=O)(=O)N2CCC(C)CC2)cc1[N+](=O)[O-]
  -2.9, 111.0, 2.1, -16.7, 117.7, i, 0.83
COc1c(OC(C)=O)ccc(/C=C/c2ccc3cccc(OCc4ccccc4)c3n2)c1[N+](=O)[O-]
  0.7, 105.5, 2.3, -51.7, 104.8, i, 0.77
COC(=O)/C=C1/SC(=Nc2ccc(Cl)c(Cl)c2)NC1=O
  ·, 101.8, ·, ·, ·, i, 1.17
O=C(C[n+]1cc(-c2ccc(Cl)c(Cl)c2)n2c1CCC2)c1cccs1
  ·, 94.3, ·, ·, ·, i, 1.02
O=[N+]([O-])c1ccc(-c2nnc(-c3ccccc3)c(N3CCOCC3)n2)cc1
  -2.4, -19.4, -13.0, ·, ·, i, 0.91
C=C1CN(CC(=O)OC)S(=O)(=O)c2ccccc21
  ·, 96.5, ·, ·, ·, i, 0.95
COc1cc(/C=N/N=C/c2c[nH]c(=O)c(C#N)c2Nc2ccccc2)ccc1O
  ·, 101.0, ·, ·, ·, i, 0.94
CCOC(=O)c1nc2sc3c(c2c(=O)[nH]1)CCC(C)C3 (centres undefined)
  ·, 102.3, ·, ·, ·, i, 0.88
COCCn1c(-c2ccccc2)nc2ccccc21
  -3.8, 33.9, 14.7, 27.8, 130.2, i, 1.02
O=C(O)c1cc2n(n1)C(C(F)(F)F)CC(c1ccccc1)N2 (centres undefined)
  -2.4, 97.1, -8.6, ·, ·, i, 0.9
Cc1[nH][nH]c(=O)c1C(c1ccc(-c2ccc(Cl)c(Cl)c2)o1)c1c(C)[nH][nH]c1=O
  0.0, 101.4, 2.4, 17.1, 76.5, i, 0.89
Cc1ccccc1-n1c(SCC(=O)c2c(N)n(C)c(=O)n(C)c2=O)nnc1-c1cccnc1
  0.5, 96.4, 6.4, -22.6, 136.4, i, 0.97
Cc1cc(C)c(C(=O)COC(=O)c2ccc(NC(=O)CC#N)cc2)cc1C
  ·, 100.2, ·, ·, ·, i, 0.9
CC1Cc2ccccc2N1C(=O)CSCC(=O)O (centres undefined)
  -0.2, 97.5, 0.5, ·, ·, i, 0.89
O=C(C1CCCN(Cc2nc(-c3ccc(Cl)cc3)no2)C1)N1CCOCC1 (centres undefined)
  ·, 115.5, -1.3, ·, ·, i, 1.08
COc1ccc(OC)c2c(C)cc(N3CCCN(C)CC3)nc12
  -1.9, 100.8, -4.9, -66.7, 120.8, i, 1.12
COC(=O)Nc1nc2ccc(Br)cc2s1
  ·, 103.6, -1.3, ·, ·, i, 0.96
COc1ccc(-n2c(Cc3cccn3C)nnc2SCC(=O)N2CCOCC2)cc1
  -1.7, 102.3, -9.9, ·, ·, i, 1.11
CCOC(=O)C1(CCOc2ccccc2)CCN(Cc2cccs2)CC1
  ·, 105.1, 3.6, ·, ·, i, 0.93
O=C(OCc1cc2ccccc2[nH]c1=O)c1ccccn1
  -2.1, 104.0, -2.5, ·, ·, i, 0.9
CC(=O)N1CCN(c2ccc(NCc3ccc(F)cc3)cc2)CC1
  -2.8, 101.6, 3.5, ·, ·, i, 1.3
NC(=O)c1c(/N=C/c2cccs2)sc2c1CCCC2
  ·, 104.1, ·, ·, ·, i, 1.17
CC1(NC(=O)N2CCCCC2)CCS(=O)(=O)C1 (centres undefined)
  -1.8, 97.1, -5.9, ·, ·, i, 1.01

Profiles from above. Order of screens: GALR2 ag | RGS16-Gao HTS | PKD1 inh | Insulin prom inh | Insulin prom inh cell count | HSV augment | HSV augment primary fold
Listed for CCOC(=O)c1cc2c(=O)n3ccccc3nc2n(Cc2ccccc2)c1=N → -1.2 | 97.7 | 0.3 | 28.9 | 100.8 | i | 0.977
Listed for O=[N+]([O-])c1ccc(-c2nnc(-c3ccccc3)c(N3CCOCC3)n2)cc1 → -2.4 | -19.4 | -13.0 | · | · | i | 0.91

Additional records:
Value order – GALR2 ag, RGS16-Gao HTS, PKD1 inh, Insulin prom inh, Insulin prom inh cell count, HSV augment, HSV augment primary fold
COc1ccc(CC(=O)NNC2=Nc3cccc4cccc2c34)cc1OC
  ·, 103.9, ·, ·, ·, i, 0.98
CCOC(=O)c1ccc(NC(=S)NCCCN2CCCC2=O)cc1
  ·, 100.1, -4.4, -35.7, 101.5, i, 0.98
CC(C(=O)NC1CCCc2ccccc21)N1CCN(Cc2ccc3c(c2)OCO3)CC1 (centres undefined)
  -2.3, 112.9, -20.9, 5.7, 125.3, i, 0.85
Cc1nn(C)cc1CNC(=O)c1ccc(F)cc1
  -0.3, 99.0, 5.5, ·, ·, i, 0.98
Cc1ccc(NC(=O)COC(=O)c2ccc(F)cc2Cl)c(Br)c1
  ·, 110.7, -2.7, -36.4, 132.1, i, 1
O=C(N/N=C/c1ccncc1)NC12CC3CC(CC(C3)C1)C2
  ·, 100.9, ·, ·, ·, i, 1.1
CCOC(=O)c1c(NC(=O)CN2C(=O)NC3(CCC(CC)CC3)C2=O)sc(C)c1-c1ccc(C)cc1 (centres undefined)
  -1.1, 42.1, -1.0, 32.4, 58.7, i, 1.06
COc1ccc(-n2cnc3c(sc4nccc(N(C)C)c43)c2=O)cc1
  -0.6, 97.7, -2.8, 73.3, 122.6, i, 1.03
CCNCC(=O)N1c2ccccc2CCc2ccc(NC(C)=O)cc21
  -1.2, 104.0, -1.6, -33.3, 43.9, i, 1.02
O=C(O)CCCC(=O)NCCc1ccncc1
  -0.6, 95.0, -4.7, 2.9, 100.0, i, 1.06
O=C(Oc1ccc(Cl)c2cccnc12)C12CC3CC(CC(C3)C1)C2
  1.5, 101.1, 10.8, ·, ·, i, 0.94
COc1c(Br)cc([N+](=O)[O-])c(OC)c1C(=O)NC(=O)Nc1nc(C)cc(C)n1
  ·, 102.7, ·, ·, ·, i, 0.97
CN(c1ccccc1)S(=O)(=O)c1ccc(C(=O)OCC(=O)NC(N)=O)cc1
  ·, 100.7, ·, ·, ·, i, 0.94
Cc1ccc2c(c1)COc1c3ccc(C(=O)N[C@@H](CO)C(C)C)cc3nn1-2
  ·, 100.4, ·, ·, ·, i, 1.02
O=C1ON=C(c2ccc(Cl)cc2)/C1=C/c1ccc(O)cc1
  ·, 60.5, 0.9, ·, ·, i, 1.03
CCCSc1nc(=O)n2cccc(C)c2n1
  -3.2, 102.8, -3.0, -25.9, 118.4, i, 1.07
O=C1/C(=C/c2ccccc2)Oc2cc(OC(=O)N3CCOCC3)ccc21
  -1.6, 27.8, -1.2, -86.1, 65.1, i, 0.89
COc1ccc(N2CCN(C(=O)c3ccc(C)c(Cl)c3)CC2)cc1
  -1.4, 98.3, -9.0, 5.7, 162.2, i, 0.97
Clc1cccc(CSC2=NCCCN2)c1
  -3.6, 100.9, 3.6, -217.2, 51.6, i, 1
CC(C)CC[n+]1ccn(C2=C([O-])c3ccccc3C(=O)/C2=N\S(=O)(=O)c2ccccc2)c1
  -0.3, 112.7, 8.5, 8.6, 50.8, i, 0.85
Cc1cc(C(=O)O)c(CCCN)s1
  -3.1, 102.8, -8.4, -25.7, 125.8, i, 1.05
CCc1ccccc1OCC(=O)Nc1nc(-c2cccnc2)cs1
  ·, 99.8, -7.6, 20.0, 72.2, i, 0.93
COc1cc(C#N)ccc1OCC(=O)NCc1cccs1
  ·, 104.7, 2.9, -51.4, 145.7, i, 0.97
COc1ccc(Nc2ncc(C(=O)N3CCN(c4ccccc4OC)CC3)c3ccccc23)cc1
  -1.0, 97.6, -3.2, 5.3, 76.7, i, 0.92
O=C(/C=C/c1ccccc1)N1CCN(c2ccc([N+](=O)[O-])c(N3CCOCC3)c2)CC1
  1.7, 99.5, -3.2, 10.0, 62.4, i, 0.84
COc1cc(C(=O)Nc2cc(C)cc(C)c2)c(-n2cnnn2)cc1OC
  ·, 99.8, 4.3, ·, ·, i, 1.03
CC(=O)c1c(C)oc2ccc(N(C(=O)C3CCCCC3)S(=O)(=O)c3cc([N+](=O)[O-])ccc3C)cc12
  0.9, 49.2, 0.6, ·, ·, i, 1.19
CCOc1ccccc1-n1c(SCC(=O)NCc2ccco2)nnc1-c1ccncc1
  0.6, 109.0, 3.4, -86.7, 29.4, i, 0.96
CC1Oc2ccccc2N(CC(=O)c2ccccc2)C1=O (centres undefined)
  -2.5, 98.1, -8.0, ·, ·, i, 1.04
N#CC1=C(N)Oc2n[nH]c(-c3cccs3)c2C1C1CCCCC1 (centres undefined)
  -0.5, 111.7, -1.7, -110.0, 122.3, i, 1.03

The list continues.
Value order – GALR2 ag, RGS16-Gao HTS, PKD1 inh, Insulin prom inh, Insulin prom inh cell count, HSV augment, HSV augment primary fold
O=C1[C@@H]2C(c3cccnc3)=NO[C@@H]2C(=O)N1c1ccc2ccccc2c1
  ·, 97.2, ·, ·, ·, i, 1.05
COc1ccc(S(=O)(=O)N(C)CC(=O)N2CCOCC2)cc1Cl
  -1.8, 90.2, 3.3, -462.5, 36.2, i, 1
N#C/C(=C(/O)c1ccc([N+](=O)[O-])s1)c1nc2ccccc2[nH]1
  ·, 99.6, ·, ·, ·, i, 0.88
Cc1cc(C)n2nc(SCc3nc4ccccc4[nH]3)nc2n1
  -2.6, 99.6, 2.9, ·, ·, i, 1.16
COc1cc(CO)c(Br)cc1OCC(N)=O
  ·, 101.8, 6.8, 63.6, 99.2, i, 0.91
COc1cc(/C=N/n2c(-c3cc(C)[nH]n3)n[nH]c2=S)cc(OC)c1O
  ·, 98.8, ·, ·, ·, i, 1.04
CCOC(=O)NNc1cc(C(F)(F)F)ccn1
  ·, 148.2, ·, ·, ·, i, 0.91
COCc1cc(C(C)=O)ccc1OC
  -2.6, 96.5, 0.7, ·, ·, i, 0.95
CCOc1ccc(NC(=S)N2CCN(CCN3C(=O)c4cccc5cccc(c45)C3=O)CC2)cc1
  ·, 112.6, -1.9, -33.3, 32.7, i, 1.15
CCN(CC)CCNc1ncnc2c1[nH]c1ccc(OC)cc12
  -3.5, 106.9, -0.1, ·, ·, i, 0.76
Cc1ccc(/C=C2\Oc3cc(OC(=O)N4CCOCC4)ccc3C2=O)cc1
  0.3, 101.4, 1.4, 2.0, 142.1, i, 1.08
O=C(O)c1ccc2c(=O)n(-c3ccccc3)c(=S)[nH]c2c1
  ·, 96.0, ·, ·, ·, i, 1.15
Cc1ccc(S(=O)(=O)C(C#N)c2nc3ccccc3nc2N2CCN(C)CC2)cc1 (centres undefined)
  -1.1, 110.5, -9.1, 16.7, 96.9, i, 0.97
CC(C)(C)C1=CC(=Nc2ccccc2N)C=C(C(C)(C)C)C1=O
  -1.4, 101.4, -2.7, -13.8, 90.1, i, 1
Cc1ccc2nsnc2c1S(=O)(=O)N(Cc1ccco1)Cc1cc2ccc(C)c(C)c2[nH]c1=O
  -1.8, 97.5, -11.3, ·, ·, i, 0.82
CC(=O)Nc1cccc(OC(=O)N2CCOCC2)c1
  -1.4, 106.4, -0.7, 10.3, 134.7, i, 0.89

Some of these compounds in order of the PKD1 inh value, highest first.
smiles | GALR2 ag | RGS16-Gao HTS | PKD1 inh | HSV augment | HSV augment primary fold
COc1ccc(S(=O)(=O)N(C)CC(=O)N2CCOCC2)cc1Cl | -1.8 | 90.2 | 3.3 | i | 1
Cc1ccc(/C=C2\Oc3cc(OC(=O)N4CCOCC4)ccc3C2=O)cc1 | 0.3 | 101.4 | 1.4 | i | 1.08
Cc1ccc(S(=O)(=O)C(C#N)c2nc3ccccc3nc2N2CCN(C)CC2)cc1 (centres undefined) | -1.1 | 110.5 | -9.1 | i | 0.97

Reprinted at random: 3 records from the list.
Value order – GALR2 ag, RGS16-Gao HTS, PKD1 inh, Insulin prom inh, Insulin prom inh cell count, HSV augment, HSV augment primary fold
O=C1[C@@H]2C(c3cccnc3)=NO[C@@H]2C(=O)N1c1ccc2ccccc2c1
  ·, 97.2, ·, ·, ·, i, 1.05
COc1cc(CO)c(Br)cc1OCC(N)=O
  ·, 101.8, 6.8, 63.6, 99.2, i, 0.91
Cc1cc(C)n2nc(SCc3nc4ccccc4[nH]3)nc2n1
  -2.6, 99.6, 2.9, ·, ·, i, 1.16

Rows are unselected; any-hit rate near 1.3%.
